Bfl-1 A1 inh: inhibitors of the anti-apoptotic protein A1, read as caspase activation | MEF A1-2A-BIM cells, Caspase-Glo 3/7 luminescence, 3 h; percent of clofoctol response, vehicle zero | caspase activation, % (no concentration beside the values) | 330,000 compounds, 0.066% hits;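 active = over half of replicate activation scores above 10%, or exactly half above 10 with the replicate mean above 10; inconclusive = replicate mean below 10 yet half the replicates above 10; inactive = over half of replicates below 10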;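 note: wells of about 30 µL received 50 nL stock; many hits fall short of the cut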
LANA-H2B inh: blocks KSHV LANA binding to histone H2A/H2B; Q9QR71; cell-free LANA-H2A/H2B peptide, fluorescence polarization; inhibition, % (no concentration beside the values); 320,000 compounds, 0.6% hits; AID 2629; in the data active = inhibition mostly above about 10%, no sharp cut-off; inactive = mostly below about 6.7%;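 note: stock transfer was 7.5 nL into about 10 µL; 0% = median of vehicle wells and 100% = median of positive control wells; one replicate is shown; the record names a cut of 25% in any replicate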
Vif TR-FRET: HIV-1 Vif–A3G interaction blockers – biochemical, TR-FRET, GST-Vif 1-94, biotin-A3G peptide, dose response retest, primary screen (AID 1117319); TR-FRET GST-Vif / biotin-A3G peptide binding; higher % means a stronger effect; test concentration not given here; strong numbers were not always called active; inhibition, %, or IC50 in µM where a hit was titrated; 260,000 compounds, 0.57% hits;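 active = above the screen mean plus three standard deviations and confirmed in dose response; inconclusive = results disagree or hit not tested in dose response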;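 note: Vif residues 1-94 fused to GST binding biotinylated APOBEC3G peptide 110-148; 0% = full assay without inhibitor and 100% = GST in place of GST-Vif; retest series ran down from 100 µM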
Ecoli growth: blocks Escherichia coli growth | OD600 absorbance (no concentration beside the values) | 330,000 compounds, 0.21% hits | AID 1053175 | OD600, 23 h; active compounds read low;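 active = OD600 absorbance below the run mean of sample wells minus 3.6 SD, in any replicate, cut at about 0.56 in these data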;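 note: stock transfer was 300 nL into about 60 µL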
B2AR ag: agonists of human beta-2 adrenergic receptor inducing internalization; AID 504454; P07550; response, % (test concentration not listed); 340,000 compounds, 0.43% hits; Am2.2-beta2AR cells, FAP receptor internalization, flow cytometry; reference of the scale not given here;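 active = response above a set limit, near 3 SD of response in nonfluorescent compounds, cut at about 42% in these data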;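 note: stock transfer was 100 nL into about 11 µL; a reference agonist was the positive control; negative values mostly stem from fluorescent compounds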
Target sequence (P07550 whole entry, looked up): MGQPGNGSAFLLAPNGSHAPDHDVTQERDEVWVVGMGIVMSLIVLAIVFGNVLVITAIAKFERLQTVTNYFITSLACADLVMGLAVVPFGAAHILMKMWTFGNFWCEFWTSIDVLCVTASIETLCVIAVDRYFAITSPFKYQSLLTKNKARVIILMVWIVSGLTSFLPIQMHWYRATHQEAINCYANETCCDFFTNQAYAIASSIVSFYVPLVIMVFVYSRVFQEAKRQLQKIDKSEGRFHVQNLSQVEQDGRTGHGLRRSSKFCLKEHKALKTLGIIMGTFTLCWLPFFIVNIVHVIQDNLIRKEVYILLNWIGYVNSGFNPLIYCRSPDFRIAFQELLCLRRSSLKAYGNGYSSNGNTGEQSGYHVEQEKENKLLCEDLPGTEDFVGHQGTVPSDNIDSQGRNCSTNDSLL
HNF4A DNA FP: change in binding of human HNF4 alpha to DNA; 360,000 compounds, 0.3% hits; AID 1224865; activity change, % at 10 µM; HNF4a-FITC DNA binding, fluorescence polarization, 1 h; P41235; in the data active = activity change above about 30%, passing the limit was not always enough;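 note: controls were the assay level and a saturating level of protein; the project sought stronger binding though the title names inhibitors; some compounds called inactive have numbers as strong as hits; positive values seem to mean higher polarization but the record does not say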
UCH37 inh: inhibitors of human deubiquitinating enzyme UCH37; purified proteasome/UCH37, Ub-AMC cleavage fluorescence; inhibition, % (concentration not given with the values); 330,000 compounds, 0.33% hits;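 active = mean of two replicates above 20%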;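 note: 0% = compound-free wells with enzyme and 100% = wells lacking proteasome; stock transfer was 100 nL into about 20 µL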
Target sequence (Q9Y5K5 whole entry, looked up): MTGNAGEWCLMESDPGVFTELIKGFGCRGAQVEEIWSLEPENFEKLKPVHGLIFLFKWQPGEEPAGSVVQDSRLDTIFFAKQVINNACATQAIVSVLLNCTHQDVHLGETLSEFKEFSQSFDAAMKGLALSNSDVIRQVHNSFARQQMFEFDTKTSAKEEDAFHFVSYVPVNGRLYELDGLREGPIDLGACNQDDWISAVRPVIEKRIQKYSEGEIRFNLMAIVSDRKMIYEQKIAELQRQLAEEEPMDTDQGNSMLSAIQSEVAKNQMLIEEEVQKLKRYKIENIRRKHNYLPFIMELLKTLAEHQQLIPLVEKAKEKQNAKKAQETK
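Material: human UCH37 enzyme supplied as purified proteasome complex. Measure: % inhibition of Ub-AMC cleavage fluorescence. Medium: pH 7.4 Tris-HCl (50 mM) with ovalbumin, ATP-MgCl2, DTT. Times: 30 min preincubation with enzyme, 25 min cleavage at room temperature. Detection: AMC fluorescence intensity at 355/460 nm.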
Starred values were filed as active, the others as inactive; ? = inconclusive; . = no result given.

SMILES	Bfl-1 A1 inh	LANA-H2B inh	Vif TR-FRET	Ecoli growth	B2AR ag	HNF4A DNA FP	UCH37 inh
CCCCC/C(=N\O)c1c[nH]c2ccccc12	1.9	-8.0	-8%	.	-4	0.8	.
Cc1ccc(N2C(=O)NC(=O)/C(=C\c3cc(C)n(-c4ccc(C(=O)O)cc4)c3C)C2=O)cc1	0.2	0.2	11%	0.72	0	2.8	6.7
CC1=C2CCC3C(CCC4=CC(=O)CCC43C)C2CC1 (centres undefined)	.	.	-3%	0.65	-8	1.8	20*
C[Se]C[C@@H](N)C(=O)O	0.7	2.2	.	.	-1	-2.4	.
O=C(O)C1C2c3ccccc3C(c3ccccc32)C1C(=O)Nc1ccccc1 (centres undefined)	-0.6	6.2	-1%	0.68	10	-2.2	7.1
CCN1CCN(c2ccc(N)cc2C)CC1	0.3	2.1	-3%	0.69	-5	4.2	3.6
O=S(=O)(c1ccc(Cl)cc1)N1CC1c1ccccc1 (centres undefined)	1.3	-2.6	.	0.71	-1	1.5	0.1
Cc1cccc(-n2c(-c3ccccc3)nc3ccccc3c2=O)n1	0.5	0.8	-2%	0.69	-1	2.0	-1.3
O=C(c1ccc(Cl)cc1)C1CCCN(Cc2cccc3ncccc23)C1 (centres undefined)	0.3	-2.2	-3%	0.67	2	-6.4	3.1
Cc1ccc(NS(=O)(=O)c2ccc(OCC(=O)N3CCN(C)CC3)cc2)cc1	0.5	-2.3	-3%	0.64	9	-0.6	-0.5
Fc1cccc(CNCCc2c[nH]c3ccccc23)c1	0.2	6.7	.	0.66	-3	0.4	2.8
CCOP(=O)(OCC)C(NC(=O)C(Cl)Cl)C(Cl)(Cl)Cl (centres undefined)	0.2	4.6	-1%	0.68	5	0.5	0.2
C=CCn1c(O)c(C(CC)=NCCN2CCN(C(=S)NC)CC2)c(=O)[nH]c1=O	-0.3	2.9	14%	0.69	1	1.3	4.6
CCN1CC2([N+](=O)[O-])CC=C(Cl)C([N+](=O)[O-])(C1)C2 (centres undefined)	-0.5	0.4	-2%	0.65	4	-3.0	2.4
O=C(NC1CCCCC1)[C@@H]1CC=C[C@@H]2CCN(Cc3ccccc3)C(=O)[C@@H]21	1.0	-0.3	.	.	4	-1.5	0.9
Cc1ccccc1NC(=O)Cc1nc(COC(=O)Cc2ccccc2)cs1	-1.0	4.9	2%	.	0	-0.2	.
CCn1c(O)c(C(c2ccccn2)c2c(O)n(CC)c(=S)[nH]c2=O)c(=O)[nH]c1=S	0.1	3.1	3%	0.69	4	-2.6	7.1
O=C(C1CCCN(S(=O)(=O)c2cccc3nsnc23)C1)N1CCC2(CC1)OCCO2 (centres undefined)	0.6	45*	3%	0.68	.	.	3.3
Cn1cc(C(=O)N2CCOCC2)c2ccccc21	-0.4	0.5	1%	0.69	7	-0.5	-1.2
COC(=O)Cn1cc(/C=C2\C(=O)NC(=O)N(c3ccc(OC)cc3)C2=O)c2ccccc21	1.2	-1.1	-12%	0.69	-10	-0.9	-2.1
O=P(O)(Oc1ccccc1)OC(c1ccccc1)C(F)(F)C(F)(F)F (centres undefined)	0.1	-2.1	?	0.66	3	-0.6	0.7
ClCCOCOCCCl	-0.3	2.4	.	0.65	-2	4.4	4.4
COC(=O)C1=C(c2ccc(-c3ccccc3)c(F)c2)C[C@@H]2CC[C@H]1N2C(=O)NCCOc1ccc(OC)cc1	-0.3	-2.9	.	.	-1	1.6	3.7
COc1ccc2c(c1)c(C(=O)C(C)N1CCCCC1)c(C)n2C (centres undefined)	-0.3	1.0	-16%	0.66	20	0.5	4.3
CC(=NCc1ccc2c(c1)OCO2)c1c(O)n(Cc2ccccc2)c(=O)[nH]c1=O	-0.8	1.5	?	0.68	5	-0.2	6.0
CCC(=O)N1N=C2C3CCN(CC3)C2C1c1ccccc1 (centres undefined)	0.7	4.5	-2%	0.68	-1	-1.0	1.4
COc1cccc(CNCCc2c[nH]c3ccccc23)c1	0.2	0.9	-5%	0.64	3	1.1	0.4
CCn1nc(-c2cccs2)nc2c(=O)n(C)c(=O)nc1-2	.	.	12%	0.62	102*	100*	95*
CCN(CC)CCN=Cc1c(O)n(CCC2=CCCCC2)c(=O)[nH]c1=O	0.3	-1.9	3%	0.7	-3	1.5	-0.9
Cc1cccc(NC(=O)OC2CN3CCC2CC3)c1 (centres undefined)	0.7	-2.1	6%	0.69	-3	-3.6	5.4
CN1CCN(/N=C/c2c(O)n(C)c(=O)n(C)c2=O)CC1	0.8	2.3	-11%	0.69	5	-0.6	4.3
O=C1CC=C2C3CC4N(CCC45c4ccccc4N1C25)CC3=CCO (centres undefined)	.	.	-7%	.	-6	0.7	.
CCN1C(=O)C(=C2C=C(C)OC(C)=C2)C(=O)N(CC)C1=S	-1.1	0.4	-308%	0.72	-4	1.8	3.3
CC1CN(c2ccc([N+](=O)[O-])c(N3CCCCC3)c2)CCN1 (centres undefined)	-0.5	0.3	1%	0.63	-3	-1.2	9.2
COC(=O)C1=C(c2cccc3c2S(=O)(=O)c2ccccc2-3)C[C@@H]2CC[C@H]1N2C(=O)N1CCOCC1	0.3	2.1	.	.	-1	-1.8	7.7
CCCCCn1c(=O)c(C(=O)Nc2ccccc2Cl)c(O)c2ccccc21	0.7	-3.3	-23%	0.68	-3	1.7	-15
CCCCNC(=O)NC(C(N)=O)P(=O)(OCC)OCC (centres undefined)	0.1	-4.2	4%	0.69	-5	2.7	4.6
Cc1cc(N2C(=O)CC(N3CCC(n4c(=O)[nH]c5ccccc54)CC3)C2=O)no1 (centres undefined)	-0.3	2.8	4%	0.78	1	-0.2	3.6
COc1ccccc1Cn1c(SCC(=O)C(C)(C)C)nc2cc(C(=O)N3CCC4(CC3)OCCO4)ccc2c1=O	0.2	12*	0%	0.68	.	.	4.9
CCCC(=O)Nc1cc(C(=O)N2CCC3(CC2)OCCO3)ccc1S(=O)(=O)c1ccc(C)cc1	0.3	0.9	5%	0.69	1	2.4	-2.0
O=C(Cc1ccccc1)OCCN1CCCCC1	0.9	-1.4	-4%	0.7	0	-1.5	6.0
CCCCP(=O)(O)CCC(=O)O	-0.2	-3.4	1%	0.71	4	1.8	4.2
O=C(c1cc2c(s1)CCCCCC2)N1CCC2(CC1)OCCO2	1.0	6.2	0%	0.66	8	-4.1	0.6
COc1cc2c(cc1OC)C1[C@H]3C(=CC[C@H]1OC2O)CCN3C (some centres undefined)	-0.5	1.8	.	.	-1	-6.7	2.2
Cc1nn(-c2ccccc2)c(C)c1NC(=O)COC(=O)Cc1ccccc1	-0.2	-2.6	-3%	0.69	-1	4.2	-1.5
COc1ccc(-[n+]2c(-c3ccccc3)cc(-c3ccccc3)cc2-c2ccccc2)cc1	-0.2	0.0	.	0.74	.	.	5.9
CCOC(=O)C1CCN(C(C)C(=O)c2c(C)[nH]c3cc(C)ccc23)CC1 (centres undefined)	0.2	1.0	-1%	0.8	11	2.1	6.2
CC(=O)OC1(c2ccccc2)CCN(C)CC1(C)C (centres undefined)	0.9	0.3	12%	0.68	5	-0.6	3.3
Cc1nn(Cc2ccccc2)c(C)c1C(=O)NCc1ccccc1F	0.8	2.9	-8%	0.71	3	-1.1	4.9
CN1C(=O)C(=Cc2ccccc2OS(=O)(=O)c2ccccc2)C(=O)N(C)C1=O	0.9	5.4	.	0.66	5	-3.3	3.5
Cc1ccc2nc(C)n(-c3ccc(F)cc3)c(=O)c2c1	0.9	-0.3	11%	0.67	3	-1.8	3.6
O=[N+]([O-])c1ccc(Cl)c([N+](=O)[O-])c1	0.4	-2.5	.	.	59*	1.4	-1.3
O=C(c1cccs1)C1CN2CCC1CC2 (centres undefined)	0.2	-6.0	1%	0.7	-3	2.3	2.1
CN1c2ccc([N+](=O)[O-])cc2CC2(C(=O)NC(=O)NC2=O)C1c1ccccc1 (centres undefined)	0.1	2.2	?	0.71	7	3.8	8.3
CCC12CN3CC(CC)(CN(C1)C3c1cccnc1)C2=O (centres undefined)	0.4	-2.4	2%	0.68	-1	0.9	-1.6
Nc1ccc2c(c1)Cc1ccccc1-2	0.1	5.3	5%	0.67	24	-1.3	2.3
Cc1[nH]c2c(C(F)(F)F)cccc2c1CCN	0.1	2.3	2%	0.75	7	3.6	3.4
CN1C(=O)C(C2c3ccccc3C(=O)N2Cc2ccccc2)C(=O)N(C)C1=O (centres undefined)	0.1	3.4	0%	0.7	0	-2.8	3.5
O=C(CNC(=O)c1ccccc1)Nc1ccc(Br)cc1C(=O)c1ccccc1	0.1	-0.7	2%	0.71	-4	-0.7	0.7
O=C(O)c1ccc([N+](=O)[O-])c([N+](=O)[O-])c1	.	.	-13%	0.69	-7	0.1	1.0

A draw from above in order of number of heavy atoms, lowest first.
SMILES	Bfl-1 A1 inh	LANA-H2B inh	Vif TR-FRET	Ecoli growth	B2AR ag	HNF4A DNA FP	UCH37 inh
Nc1ccc2c(c1)Cc1ccccc1-2	0.1	5.3	5%	0.67	24	-1.3	2.3
Cc1ccc2nc(C)n(-c3ccc(F)cc3)c(=O)c2c1	0.9	-0.3	11%	0.67	3	-1.8	3.6
CN1C(=O)C(=Cc2ccccc2OS(=O)(=O)c2ccccc2)C(=O)N(C)C1=O	0.9	5.4	.	0.66	5	-3.3	3.5

(next part)
SMILES	Bfl-1 A1 inh	LANA-H2B inh	Vif TR-FRET	Ecoli growth	B2AR ag	HNF4A DNA FP	UCH37 inh
COc1ccc(-c2ccc3n2Cc2cnnn2-c2ccccc2-3)cc1	.	.	5%	.	-4	0.6	.
CCOc1ccc(N=Cc2c(O)n(-c3ccc(C)c(C)c3)c(=O)[nH]c2=O)cc1	0.0	2.4	.	0.65	-9	2.2	-0.3
C=CCN1C(=O)/C(=C/c2cccs2)C(=O)NC1=S	0.7	-5.0	?	0.69	8	1.9	2.6
COc1ccc(C)cc1NC(=O)c1c(C)nn(Cc2ccccc2)c1Cl	0.4	3.6	9%	0.68	-3	-4.4	0.5
Cc1cc(OCc2nn[nH]n2)c2c3c(c(=O)oc2c1)CCCC3	1.3	0.4	?	0.7	8	-0.6	-151
COc1cc(/C=C2\C(=O)NC(=O)N(CCc3ccc(F)cc3)C2=O)ccc1O	-0.5	3.2	.	0.71	16	4.8	2.0
CC/C(=N\NC(=O)c1ccccc1)c1c(O)n(C2CCCCC2)c(=O)[nH]c1=O	0.0	0.9	.	0.71	10	1.4	-0.7
CC12CCC3C(CCC4(O)CC(O)CCC34C=NO)C1(O)CCC2C1=COC(=O)C1 (centres undefined)	.	.	-13%	.	3	12	.
Cc1cc(C=C2C(=O)N(C)C(=S)N(C)C2=O)c(C)n1C1CCCC1	0.3	3.0	14%	0.71	6	-1.3	2.1
COc1ccc(N2CCN(CCCN)CC2)cc1	0.0	-2.0	1%	0.74	3	3.6	-1.1
CC(NC1CCCCC1)C(O)C12CC3CC(CC(C3)C1)C2 (centres undefined)	0.1	5.3	-3%	0.65	0	-2.1	1.0
c1ccc2c(CN3CCCCC3)c[nH]c2c1	0.5	2.2	.	0.64	4	-4.5	4.4

Random excerpt: 3 entries already listed.
SMILES	Bfl-1 A1 inh	LANA-H2B inh	Vif TR-FRET	Ecoli growth	B2AR ag	HNF4A DNA FP	UCH37 inh
COc1ccc(C)cc1NC(=O)c1c(C)nn(Cc2ccccc2)c1Cl	0.4	3.6	9%	0.68	-3	-4.4	0.5
COc1ccc(N2CCN(CCCN)CC2)cc1	0.0	-2.0	1%	0.74	3	3.6	-1.1
COc1ccc(-c2ccc3n2Cc2cnnn2-c2ccccc2-3)cc1	.	.	5%	.	-4	0.6	.

Compound activity as filed in PubChem BioAssay.

These rows are one share of the data; rates above refer to the full screens.
